PINK1 modulator: A Quantitative High throughput Screen to Identify Chemical Modulators of PINK1 Expression. AID 624263, 2012. PINK1 immunofluorescence, high-content cytometry, 24 h. hit rate 0.2% among 410,000. Potency, µM (series often up to 76.6 µM), for inactives: at the top dose activation (PINK1 increase), usual class: activators; active = well fitted activation curve with a large enough effect; inconclusive = small, poorly fitted or top-dose-only effect; inactive = flat fitted curve, though single readings scatter; cell line not stated here;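 note: % of control where 0% means no effect; nearly all actives have a fitted effect of over 65% in size; a mitochondrial uncoupler was the plate control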
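A stable cell line was treated with compounds at 5 concentrations for 24 hours, with CCCP as control. PINK1 levels and mitochondrial localization were measured by immunofluorescence with mitochondrial, cell and nuclear markers after fixation, read by laser-scanning cytometry.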
ClpP mod: qHTS Assay for Activators of ClpP. ATP-dependent Clp protease proteolytic subunit (Bacillus subtilis (strain 168)), P80244. purified B. subtilis ClpP, FRET peptide cleavage, 20 min. Potency, µM (series often up to 57.5 µM), for the others: at the top dose activity change, negative = active. hit rate 1.9% among 340,000; active = well fitted falling curve with a large enough effect; inconclusive = small, poorly fitted or top-dose-only effect; inactive = no such curve, though single readings can be large or run the other way; note: the source files actives as falling curves though it sought activators and does not explain the sign; nearly all actives have a fitted effect of over 65% in size; many hits overshoot -100%
Target sequence (P80244 whole entry, looked up): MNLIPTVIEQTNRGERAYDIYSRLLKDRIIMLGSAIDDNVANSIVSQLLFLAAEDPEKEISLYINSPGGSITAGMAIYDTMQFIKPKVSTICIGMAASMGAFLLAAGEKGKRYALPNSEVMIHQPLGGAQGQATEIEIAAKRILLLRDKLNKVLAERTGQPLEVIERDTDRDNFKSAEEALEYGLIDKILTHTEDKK
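Purified B. subtilis ClpP, 10 microg/mL final in Tris/HCl pH8 with KCl, BSA, glycerol and Tween-20, cleaved an Abz/nitrotyrosine-quenched decapeptide. Fluorescence (ex 320, em 430) was read at 0 and 20 min at room temperature. Delta was normalized to 5.8 microM ADEP and DMSO/no-enzyme controls.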
The depositor's hits bear a star; u = inconclusive. Potency is the fitted concentration of half-maximal effect. An excerpt; count on the stated rates, not on these rows.

structure	PINK1 modulator	ClpP mod
Cc1ccc2c(c1)c1c(c(=O)n(-c3ccccc3C)c(=O)n1CC(=O)NCc1ccccc1)n2C	-0.6%	4.1%
Cc1ccc(SCc2nc(-c3ccc(C(=O)NCc4ccccc4Cl)cc3)oc2C)cc1	2.9%	4.9%
COc1cc(-c2noc(CN3CCN(c4ccccc4)CC3)n2)cc(OC)c1OC	0.9%	0.6%
CCOc1ccccc1CNc1ncnc2c1nc1n2CCCC1	-16%	-4.6%
CCOC(=O)c1c(C)oc2ncnc(Nc3cccc(C(F)(F)F)c3)c12	0.6%	0.5%
CN1CCc2c(sc3c2C(=O)NC(c2ccc(OC(=O)c4ccccc4)cc2)N3)C1 (stereo not given)	0.9%	3.8%
CCOc1ccccc1NC(=O)C(=O)NCC(c1cccnc1)N1CCN(c2ccccc2)CC1 (stereo not given)	2.2%	0.6%
CCN(CC)CCN(C(=O)c1ccco1)c1nc2ccc(Br)cc2s1	2.6%	-0.7%
Cc1ccc(CNC(=O)CN2C(=O)CCn3nc(-c4ccccc4)cc32)cc1	1.5%	-3.1%
CCN(CC)S(=O)(=O)c1ccc2c(c1)N(CC(=O)N(C)Cc1ccccc1)C(=O)CO2	2.2%	-15%
Cc1ccc(NC(=O)N2CCN(c3cc(-c4noc(C)n4)ccc3C)CC2)c(C)c1	-3.2%	-1.2%
CCC1CCCCN1C(=O)Cn1c(=O)oc2cc(S(=O)(=O)N3CCCCC3)ccc21 (stereo not given)	-1.3%	0.5%
COc1ccc(N2CCN(S(=O)(=O)c3ccc(CC(C)C)cc3)CC2)cc1	7.6%	1.6%
Cc1cccc(N2CCN(c3cc(C)nc4c(-c5ccc(Cl)cc5)c(C)nn34)CC2C)c1 (stereo not given)	4.5%	u
COc1ccc(C2C=C(c3ccccc3)Nc3nc(NS(=O)(=O)c4ccccc4)nn32)cc1 (stereo not given)	-0.2%	4.1%
COc1ccc(C(=O)NCC(=O)OCc2cc(=O)n3nc(C4CCCCC4)sc3n2)cc1	0.3%	-1.6%
COCCCN1CN=C(NS(=O)(=O)c2ccc(NC(C)=O)cc2)NC1	0.6%	-1.4%
Cc1cc(Cl)ccc1NC(=O)CN1C(=O)C(=O)c2ccccc21	-0.2%	0.2%
COc1cccc(/C=C/c2ccc3ccccc3[n+]2C)c1OC	4.3%	4.2%
COc1ccc(-n2c(SCC(=O)N3CCC(C)CC3)nc3c([nH]c4ccccc43)c2=O)cc1	-4.7%	-26%
O=C(Cn1c2ncccc2c(=O)n1-c1ccccc1)Nc1ccc(F)c(F)c1	3.8%	-26%
COc1ccc(CCNC(=O)CCS(=O)(=O)c2cc(Br)cc3c2N(C(C)=O)CC3)cc1OC	1.8%	-5.6%
Fc1cccc(CSc2nc(NCCc3ccccc3)c3ccccc3n2)c1	1.2%	-3.1%
O=c1cc(-c2ccccc2)n2c(SCc3c(F)cccc3Cl)nnc2[nH]1	6.0%	-27%
CCOc1ccc(C(CC(=O)Nc2ccc(C(=O)OC)cc2)N2Cc3ccccc3C2=O)cc1OC (stereo not given)	-4.2%	-0.7%

Next section; it opens with the seven that closed the last part.
structure	PINK1 modulator	ClpP mod
COc1cccc(/C=C/c2ccc3ccccc3[n+]2C)c1OC	4.3%	4.2%
COc1ccc(-n2c(SCC(=O)N3CCC(C)CC3)nc3c([nH]c4ccccc43)c2=O)cc1	-4.7%	-26%
O=C(Cn1c2ncccc2c(=O)n1-c1ccccc1)Nc1ccc(F)c(F)c1	3.8%	-26%
COc1ccc(CCNC(=O)CCS(=O)(=O)c2cc(Br)cc3c2N(C(C)=O)CC3)cc1OC	1.8%	-5.6%
Fc1cccc(CSc2nc(NCCc3ccccc3)c3ccccc3n2)c1	1.2%	-3.1%
O=c1cc(-c2ccccc2)n2c(SCc3c(F)cccc3Cl)nnc2[nH]1	6.0%	-27%
CCOc1ccc(C(CC(=O)Nc2ccc(C(=O)OC)cc2)N2Cc3ccccc3C2=O)cc1OC (stereo not given)	-4.2%	-0.7%
CCCn1c2ccccc2c2cnn(CC(=O)NCCCN(CC)c3ccccc3)c(=O)c21	0.6%	u
COc1cc(OC)cc(-c2cc3nc(C)c(CCC(=O)Nc4ccccc4OC)c(C)n3n2)c1	3.2%	-17%
CCOc1cc(C(=O)Nc2cccc(-c3nc4ccccc4o3)c2)cc(OCC)c1OCC	1.9%	0.4%
Cc1nc(SCC(=O)Nc2ccc(C(=O)O)cc2)n[nH]1	-1.1%	0.7%
O=C(CCC1N=C2c3ccccc3N=C(SCC(=O)NCCc3ccccc3)N2C1=O)NCc1ccc(F)cc1 (stereo not given)	-0.2%	4.9%
COC(=O)c1c(SC)nc2ccccc2c1OCc1ccc(Br)cc1	1.4%	-3.5%
Ic1ccc(Nc2nc(NCCN3CCOCC3)nc(N3CCCC3)n2)cc1	1.3%	-1.7%
Cc1ccc(NC(=O)/C=C/c2ccccc2Cl)cc1Cl	5.2%	30%
CCC1CN(C(=O)Nc2ccccc2C(F)(F)F)c2ccccc2S1 (stereo not given)	-0.5%	-0.8%
COc1cc(Cl)c(NC(=O)c2cc(S(=O)(=O)N3CCOCC3)cn2C)c(OC)c1	4.5%	0.4%
CCOc1ccc(C2CC(=O)Nc3c2c(=O)[nH]c2ncnn32)cc1 (stereo not given)	0.1%	-1.5%
Cc1c(Cl)cccc1NC(=O)c1ccc2c(c1)CCN2S(=O)(=O)c1ccccc1	1.5%	1.3%
CCCCn1nnnc1C(c1cc2ccccc2o1)N1CCOCC1 (stereo not given)	-0.8%	2.3%
N#Cc1ccc(C(=O)Nc2ccc(Cl)c(-c3nc4cc(Cl)ccc4o3)c2)c(F)c1	1.1%	-5.0%
O=C(COc1ccc(F)cc1)Nc1ccccc1C(=O)OCc1cc(=O)n2nc(C3CC3)sc2n1	-0.1%	0.0%
COc1ccc(C(c2c(O)cc(C)n(Cc3ccco3)c2=O)N2CCCCC2)cc1OC (stereo not given)	0.4%	0.6%
O=c1[nH]c(=S)[nH]c2c1C(c1ccccc1)OC(C1CCCCC1)C2 (stereo not given)	-0.6%	-1.5%
Cc1ccc(OCC(=O)Nc2ccc(OCc3cc(=O)n4ccsc4n3)cc2)cc1C	1.0%	1.8%
O=C(NCC1CCN(Cc2cccc(Cl)c2)CC1)Nc1cc(Cl)ccc1Cl	22%	-2.1%
COc1ccccc1NC(=O)CSCc1cc(=O)c2cccc(Cl)c2[nH]1	-0.2%	-1.6%
CCOc1ccc(-n2nc(CO)c(C(=O)NCCCc3ccccc3)n2)cc1	-0.2%	13µM*
Cc1ccc(CCNC(=O)c2ccc3c(c2)N(Cc2cccc(F)c2)C(=O)c2ccccc2S3)cc1	-0.6%	-0.6%
Cc1ccc(S(=O)(=O)N2CCN(c3cc(-c4cccs4)nc4ccccc34)CC2)cc1	-0.1%	3.9%
Cc1ccc2cc3cc(C(=O)N4CCN(c5ccccc5)CC4)sc3nc2c1	-0.6%	-0.8%
Cc1cc(Cl)ccc1OCC(=O)N(Cc1ccco1)Cc1ccco1	-0.8%	-0.7%
Cc1cc(C)cc(OCc2cc(=O)n3cc(C)sc3n2)c1	2.7%	0.7%
Cc1ccc(C(=O)CSc2nc3cc(C(=O)NC4CCCC4)ccc3c(=O)n2CC2CCCO2)c(C)c1 (stereo not given)	2.6%	-0.7%
O=C1NC[C@H](CCCCN2C[C@H](Cc3ccc(O)cc3)N(CCc3ccccc3)C(=O)C2=O)N(CCc2ccccc2)C1=O	-0.5%	1.2%
CCCOc1ccc(CNC(=O)C2CCN(C(=O)c3sccc3-n3cccc3)CC2)cc1	-0.3%	-0.3%
CCOc1ccc(CCNC(=O)c2ccc(C)c(-n3c(C)nc4cccnc43)c2)cc1OCC	1.3%	-1.8%
Cn1c2ccccc2c2cnn(CC(=O)Nc3ccccc3F)c(=O)c21	0.2%	u
COc1ccccc1CNC(=O)CCC1N=C2c3ccccc3N=C(SCc3ccccc3Cl)N2C1=O (stereo not given)	2.9%	-16%
N#C/C(=C\c1ccccc1)C(=O)Nc1sc2c(c1C(N)=O)CCC2	4.3%	-0.3%
CCN(C(=O)c1cc2c(s1)-c1c(C)cccc1OC2)c1ccccc1F	2.9%	3.9%
COc1cc2c(cc1OC)C(c1ccc(F)cc1)N(c1ccc(F)cc1)C(=O)C2 (stereo not given)	0.7%	1.1%
Cc1ccc(CNC(=O)c2cc(Sc3ccc(F)cc3F)nc3ccccc23)cc1	-0.6%	u
O=C(CSc1nnc(-c2ccncc2)n1-c1ccccc1)Nc1ccc(Cl)c(Cl)c1	4.4%	-5.1%
COc1cccc(-n2c(=O)c3sc4ccccc4c3n(CC(=O)NC3CCCCC3)c2=O)c1	0.4%	-12%
CCc1ccccc1NC(=O)c1ccc(F)c(S(=O)(=O)N2CCN(c3ccccc3OC)CC2)c1	2.8%	-1.6%
CCCOC(=O)CSc1ncnc2sc3c(c12)CCC(C)C3 (stereo not given)	-4.0%	-5.8%
O=c1n(Cc2ccccc2)nc2n1-c1cc(Cl)ccc1OC2	1.1%	1.1%
COc1cc(Cl)c(C)cc1Nc1nnc(-n2nc(C)cc2C)c2ccccc12	0.7%	0.5%
COc1ccccc1C(=O)NC1(C(F)(F)F)C(=O)NC(C)=C1C#N (stereo not given)	-0.3%	-2.2%
Cc1cccc(CC(=O)N2CC(=O)Nc3ccc(Br)cc3C2c2ccc(F)cc2)c1 (stereo not given)	-0.2%	-2.9%
Cc1[nH]c2ccc(C(=O)Nc3ccc(F)cc3)cc2c1C	-0.7%	-11%
O=C(COc1ccccc1)NCc1ccc2c(c1)CCN2C(=O)c1ccc(Cl)cc1	1.5%	-0.1%
Cc1nc2ccn(Cc3ccco3)c(=O)c2cc1C(=O)Nc1ccc(F)cc1	1.0%	-13%
CCc1cc(=O)oc2c(C)c3c(cc12)CN(CCc1ccccc1OC)CO3	3.0%	3.9%
CCOc1ccc(CNC(=O)c2ccc3[nH]c(C)c(C)c3c2)cc1OC	3.8%	-9.1%
CCCCN(CC)CCCNC(=O)CS(=O)(=O)Cc1nc(-c2ccc(C)cc2)oc1C	7.0%	-15%

Taken from above:
Cc1[nH]c2ccc(C(=O)Nc3ccc(F)cc3)cc2c1C – ClpP mod = -11%
Cc1ccc(CNC(=O)c2cc(Sc3ccc(F)cc3F)nc3ccccc23)cc1 – PINK1 modulator = -0.6%

The list goes on.
structure	PINK1 modulator	ClpP mod
CCOc1ccc(N(CC)C(=O)c2noc3c2COc2ccc(C)cc2-3)cc1	2.1%	-8.6%
CCOC(=O)c1cccc(NC(=O)CCc2c(C)nn(-c3ccc(N4CCCC4)nn3)c2C)c1	5.1%	-5.1%
CC(=O)c1ccc(N2CCN(S(=O)(=O)c3ccc4c(c3)CC(C)N4C(=O)C3CCC3)CC2)cc1 (stereo not given)	0.3%	-2.5%
N#C/C(=C/c1ccc(O)cc1)c1nc(-c2ccc(-c3ccccc3)cc2)cs1	18%	-2.9%
O=S(=O)(c1ccc(Oc2ccc3c(c2)OCO3)c(S(=O)(=O)N2CCOCC2)c1)N1CCOCC1	0.0%	-0.2%
CC(C)(Oc1ccc(Cl)cc1)C(=O)Nc1nc2ccc(S(C)(=O)=O)cc2s1	2.3%	-0.6%
COc1cc2c(NC3CCN(C)CC3)nc(N3CCCCC3)nc2cc1OCCOCCN1CCCC1	-0.7%	4.3%
COc1ccccc1NC(=O)C1CCN(C(=O)c2sc3nc[nH]c(=O)c3c2C)CC1	0.5%	-6.5%
O=C(Nc1nc2c(s1)CCCCCC2)Nc1ccc(F)cc1F	0.8%	0.0%
Cc1c(F)cccc1NS(=O)(=O)c1cccs1	2.3%	2.4%
Cc1cccc(N2CCN(C(=O)c3cc4c(=O)[nH]c5ccc(C)cc5c4s3)CC2C)c1 (stereo not given)	0.1%	-20%
COc1ccc(CNC(=O)c2cnn(-c3ccc(C)cc3)c2C2CCN(C(=O)OC(C)(C)C)CC2)cc1	-1.9%	1.0%
COc1cccc(CNC(=O)CN2C(=O)N(c3ccc(C)cc3C)S(=O)(=O)c3ccccc32)c1OC	-1.2%	-1.1%
CCOc1ccc(-c2cc(NC(=O)c3ccccc3)c(C(=O)OC)s2)cc1	0.3%	35µM*
CCOC(=O)CSc1nc2ccc(NC(=O)COc3ccc(F)cc3)cc2s1	1.1%	6.5%
COc1ccc(-c2c(C)c3cc(OC(=O)N4CCOCC4)ccc3oc2=O)cc1	12%	-17%
COc1cccc(CNC(=O)CN2C(=O)CSc3c2c(C)nn3-c2ccccc2)c1OC	0.5%	2.0%
Cc1cc(=O)n(Cc2cccc(Br)c2)c2c1c(C)nn2-c1ccccc1	0.7%	-7.5%
COc1ccccc1NC(=O)NCc1cccn1Cc1ccccc1	-0.1%	-3.0%

Assay outcomes as filed in PubChem.
